KCNQ2 block: KCNQ2 potassium channel inhibitors, primary screen, cell-based, CHO-K1, FluxOR thallium flux, B-score (AID 2156); B-score at 10 µM; actives 1.1% (n = 310,000); 20 min; hits give low values; only compounds with negative scores are shown here; some inactives read as strong as hits;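 active = fluorescence ratio B-score at most minus 3 library SDs, with starting brightness B-score within 2 library SDs, cut at about -5.5 in these data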
Target sequence (O88943 whole entry, looked up): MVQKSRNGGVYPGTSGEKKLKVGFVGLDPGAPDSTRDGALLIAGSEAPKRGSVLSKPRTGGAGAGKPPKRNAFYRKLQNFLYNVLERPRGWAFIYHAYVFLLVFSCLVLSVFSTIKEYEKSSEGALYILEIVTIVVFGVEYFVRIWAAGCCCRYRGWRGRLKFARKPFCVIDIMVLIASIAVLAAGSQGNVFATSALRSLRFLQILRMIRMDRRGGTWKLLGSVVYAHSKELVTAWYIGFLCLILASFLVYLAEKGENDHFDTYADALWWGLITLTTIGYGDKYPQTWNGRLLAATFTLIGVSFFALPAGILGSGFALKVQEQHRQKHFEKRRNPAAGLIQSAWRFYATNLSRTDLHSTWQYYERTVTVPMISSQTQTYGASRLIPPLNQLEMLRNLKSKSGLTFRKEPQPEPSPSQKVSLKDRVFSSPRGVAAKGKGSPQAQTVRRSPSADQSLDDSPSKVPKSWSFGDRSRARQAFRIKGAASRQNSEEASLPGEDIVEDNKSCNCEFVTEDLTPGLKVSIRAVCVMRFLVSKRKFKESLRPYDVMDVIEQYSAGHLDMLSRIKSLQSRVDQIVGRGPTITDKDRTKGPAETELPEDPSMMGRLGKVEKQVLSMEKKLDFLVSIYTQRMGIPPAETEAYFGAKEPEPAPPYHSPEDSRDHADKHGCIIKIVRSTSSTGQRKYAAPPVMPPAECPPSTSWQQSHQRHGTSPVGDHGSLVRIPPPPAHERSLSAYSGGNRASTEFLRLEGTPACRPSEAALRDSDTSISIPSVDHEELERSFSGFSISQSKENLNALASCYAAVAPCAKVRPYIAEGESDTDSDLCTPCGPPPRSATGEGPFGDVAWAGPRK
KCNQ2 block baseline: further read-out of KCNQ2 block, marked with its call; B-score; measured here: initial fluorescence intensity artifact check;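 brightness before thallium and not channel activity; 0 = typical well and far values either way flag optical interference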
* marks the source's active call; other numbers are inactive results; i = inactive. An excerpt. The share of hits here may be higher or lower than overall.

KCNQ2 block	KCNQ2 block baseline	structure
i	0.02	Cc1ccc(NC(=O)C(Cc2ccccc2)n2cccc2)cc1 (stereo not given)
i	0.55	O=C(CSc1nccn(-c2ccc(F)c(Cl)c2)c1=O)NC1CCCC1
i	0.5	COc1ccc(-c2nc3ccccc3c(=O)n2-c2c(C)n(C)n(-c3ccccc3)c2=O)cc1
i	0.31	O=C(Cn1ncc(Cl)c(Cl)c1=O)c1ccc(Cl)cc1
i	1.2	Cc1ccccc1-c1nc(C(=O)NCC2CCCO2)cc2c1[nH]c1ccccc12 (stereo not given)
i	-0.02	CCOc1ccccc1NC(=O)c1cnc(NS(=O)(=O)c2ccccc2)nc1
i	0.04	CC(=O)NC1C(OC(=O)/C=C/c2ccccc2)OC(COC(C)=O)C(OC(C)=O)C1OC(C)=O (stereo not given)
i	0.92	Nc1cccc2c1C(=O)N(C(=O)/C=C/c1cccc(F)c1)C2=O
i	-0.62	CSc1nc(C)c(CCOC(=O)c2cccc(C)c2)c(=O)[nH]1
-6.2*	0.39*	CC(C)(C)C(=O)Cn1c(=N)n(Cc2ccccc2)c2ccccc21
i	-0.95	CC[n+]1cc(-c2ccccc2)nc(N2CCOCC2)n1
i	0.17	CCOC(=O)C1=C(Cn2ccc(C(F)(F)F)n2)NC(=O)NC1c1ccc2c(c1)OCO2 (stereo not given)
i	-1	Cc1nn(-c2ccc(F)cc2)c(Cl)c1/C=C(\CC(=O)O)c1nc2ccccc2s1
i	0.48	CCOC(=O)CC1=CC(C)(CC(=O)OCC)C(C#N)(C#N)C(N)=C1C#N (stereo not given)
i	1.3	Cc1cc2oc(=O)cc(CN3CCN(S(=O)(=O)c4cccs4)CC3)c2cc1C(C)C
i	0.88	CCOC(=O)CNC(=O)/C=C/c1c(Cl)cccc1Cl
i	-1.6	CC(C)OC(=O)c1cccc2c1C(=O)c1ccccc1-2
i	-0.41	COc1ccccc1C(=O)NCCn1cc(SCC(=O)Nc2cc(C)on2)c2ccccc21
i	0.01	Brc1ccc(COc2cccc3cccnc23)cc1
i	1.5	CSc1nc(SCC(=O)NC(c2ccccc2)c2ccccc2)c2c3c(sc2n1)CN(C)CC3
i	-0.28	CCOC(CNC(=O)CN1C(=O)COc2ccc(S(=O)(=O)N3CCCC3)cc21)OCC
i	-0.38	COc1ccccc1C1=NN(C(=O)c2ccccc2)C(c2ccc(Br)cc2)C1 (stereo not given)
i	-0.9	Cc1ccc(Cn2c(C)c3cnn(CC(=O)NC4CCCC4)c(=O)c3c2C)cc1
i	-1.7	CN1CCN(Cc2nc(N)nc(Nc3ccc4c(c3)OCCO4)n2)CC1
i	0.13	COc1ccccc1C(=O)NC(C)c1ccc(-n2ccnc2)cc1 (stereo not given)

Another view of part of the listing above.
molecule	KCNQ2 block	KCNQ2 block baseline
O=C(CSc1nccn(-c2ccc(F)c(Cl)c2)c1=O)NC1CCCC1	i	0.55
COc1ccc(-c2nc3ccccc3c(=O)n2-c2c(C)n(C)n(-c3ccccc3)c2=O)cc1	i	0.5
O=C(Cn1ncc(Cl)c(Cl)c1=O)c1ccc(Cl)cc1	i	0.31
Cc1ccccc1-c1nc(C(=O)NCC2CCCO2)cc2c1[nH]c1ccccc12 (stereo not given)	i	1.2
CCOc1ccccc1NC(=O)c1cnc(NS(=O)(=O)c2ccccc2)nc1	i	-0.02
CC(=O)NC1C(OC(=O)/C=C/c2ccccc2)OC(COC(C)=O)C(OC(C)=O)C1OC(C)=O (stereo not given)	i	0.04
Nc1cccc2c1C(=O)N(C(=O)/C=C/c1cccc(F)c1)C2=O	i	0.92

(list continues)
KCNQ2 block	KCNQ2 block baseline	structure
i	0.04	CC(=O)NC(Cc1c[nH]c2ccccc12)C(=O)NCc1ccco1 (stereo not given)
i	-0.37	Cc1cccc(NC(=S)N2CCN(C(=O)c3ccco3)CC2)c1C
i	-1	COC(=O)c1cccc(N(CC(=O)NCC2CCCO2)C(=O)CCC(=O)Nc2cc(C)on2)c1 (stereo not given)
i	1.4	Cc1ccnc(SCC(=O)N2CCN(c3cccc(Cl)c3)CC2)n1
i	1	COC(=O)Nc1nnc(-c2ccc(OC)cc2)s1
i	0.8	Cc1c2ccccc2nc2c(F)c(N(C)C)c(F)c(F)c12
i	-1.3	Cc1ccnc(NC(=O)CCC(=O)N(CC(=O)NC(C)(C)C)c2ccc3c(c2)OCCO3)c1
i	-0.18	CCN(CC(=O)NCc1ccc(Cl)cc1)C(=O)c1ccc(S(=O)(=O)N(C)C)cc1
i	-2	COc1ccc(C(=O)N2CCCCCC2)cc1OC1CCN(C(C)C)CC1
i	0.36	O=C1C2CCCN2c2ccc(S(=O)(=O)N3CCOCC3)cc2N1Cc1ccccc1F (stereo not given)
i	-0.04	O=C(c1cccs1)N(c1ccc(Br)cc1)C1C=CS(=O)(=O)C1 (stereo not given)
i	0.01	COc1ccc(CNC(=O)CN(C(=O)CCC(=O)Nc2nccs2)c2ccccc2C)cc1
i	1.4	Cc1cc(=O)oc(C)c1C(=O)OCC(=O)c1ccccc1
i	-1.8	COc1ccccc1NC(=O)CCNC(=O)c1ccc(C)cc1
i	-1.2	CCOC(=O)C1=C(C)N=c2s/c(=C\c3cc(OC)c(OC)c(OC)c3)c(=O)n2C1/C=C/c1ccccc1 (stereo not given)
i	0.15	COc1ccc(C(=O)C2CCN(C(=O)c3ccc(C)cc3)CC2)cc1
i	0.02	Cc1ccc(-c2noc(CCC(=O)N(C)c3ccccc3C)n2)cc1
i	-2.1	CCOC(=O)c1cc(CO)cc(C(=O)OCC)c1
i	2.7	Fc1cccc(Cl)c1/C=N/n1c(-c2cccnc2)n[nH]c1=S
i	-0.51	O=S(=O)(c1cccc(-c2nc3ccccc3s2)c1)N1CCCC1
i	0.42	Cc1c(-n2c(SCC(=O)NC(C)C(C)C)nc3ccccc3c2=O)c(=O)n(-c2ccccc2)n1C (stereo not given)
i	1	CNC(=O)Nc1cccc(NC(=O)NC)n1
i	7.1	COc1cc2c(cc1OC)C(/C(C#N)=N\O)=NC(C)(C)C2
i	-2.5	O=C(Nc1ccccc1Cl)c1ccccc1Oc1ccc(C(F)(F)F)cc1[N+](=O)[O-]
i	0.43	Cc1cc(C)c(C)c(S(=O)(=O)N2CCN(CC(=O)Nc3ccc([N+](=O)[O-])cc3)CC2)c1C

Four entries already listed, arranged by the number in KCNQ2 block baseline, descending.
smiles	KCNQ2 block baseline
Cc1c2ccccc2nc2c(F)c(N(C)C)c(F)c(F)c12	0.8
Cc1c(-n2c(SCC(=O)NC(C)C(C)C)nc3ccccc3c2=O)c(=O)n(-c2ccccc2)n1C (stereo not given)	0.42
COc1ccc(C(=O)C2CCN(C(=O)c3ccc(C)cc3)CC2)cc1	0.15
CCOC(=O)C1=C(C)N=c2s/c(=C\c3cc(OC)c(OC)c(OC)c3)c(=O)n2C1/C=C/c1ccccc1 (stereo not given)	-1.2

The list goes on.
KCNQ2 block	KCNQ2 block baseline	structure
i	0.16	Cc1ccc(C)c(NC(=O)c2nc(-c3ccccc3)n(-c3ccccc3)n2)c1
i	2	COc1ccc(OC)c(NC(=O)CCN2CCN(Cc3ccccc3)CC2)c1
i	0.37	O=C(O)C(CCCCN1C(=O)c2ccccc2C1=O)N1C(=O)c2ccccc2C1=O (stereo not given)
i	3.3	CC(Nc1cccc(F)c1)C(=O)Nc1ccc(S(N)(=O)=O)cc1 (stereo not given)
i	3.5	Cn1c(NC(=O)c2ccc(S(=O)(=O)N3CCCCC3)cc2)cc(=O)n(C)c1=O
i	-0.43	COc1ccc(CCNc2nc(C)cc(=O)[nH]2)cc1OC
i	-0.64	O=C(NCc1ccccn1)C1CCC(=O)N(Cc2ccc(Cl)cc2)C1 (stereo not given)
i	0.34	Nc1nc(Nc2ccccc2F)nc(N2CCCC2)c1[N+](=O)[O-]
i	0.86	Cc1cc(C)nc(SCCN2CCCCC2)n1
i	-0.31	OCCN1CCN(C(=S)c2ccc(Cl)c(Cl)c2)CC1
i	-3	COc1ccc(Nc2nc(C(=O)NCc3ccco3)cs2)cc1
i	-2.2	CCOc1ccc(CCNC(=O)CCC(=O)N2CCOc3ccccc32)cc1OCC
i	1.5	CCN(CC(F)(F)C(F)F)S(=O)(=O)c1ccc(NC(=O)OC)cc1
i	-1.9	CC(C)c1ccc(S(=O)(=O)/N=C2\C=C(NS(=O)(=O)c3ccccc3)C(=O)c3ccccc32)cc1
i	0.05	O=C1CSC(c2ccccc2Br)N1c1ccc(Cl)cn1 (stereo not given)
i	1.3	COc1ccc(/C=N/NS(=O)(=O)c2ccc(C)cc2)cc1OC(=O)c1ccc(C)cc1
i	0.7	CCn1c(SCC(=O)Nc2ccccc2C)nc2nc3c(cc2c1=O)COC(C)(C)C3
i	0.05	Cc1cccc(NC2=CC(=O)CC(C)(C)C2)c1C
i	-1.7	Cc1ccc2[nH]c3c(NCc4ccco4)ncnc3c2c1
i	0.95	Cc1ccc[n+](-c2nc([O-])sc2/C=N/Nc2ccc([N+](=O)[O-])cc2)c1
i	-1.2	Cc1ccc(NC(=O)CSc2nc3[nH]ncc3c(=O)[nH]2)c(C)c1
i	0.46	O=C(COc1ccc(-c2ccccc2)cc1)N/N=C/c1cccnc1
i	0.03	CC1CCCN(S(=O)(=O)c2cccc([N+](=O)[O-])c2)C1 (stereo not given)
i	0.85	CSC1=N/C(=C\c2ccc(Br)o2)C(=O)S1
i	-1.6	CS(=O)(=O)N1CCc2cc(C(=O)Nc3ccc(Br)cc3)ccc21
i	0.27	CC1CN(CCC(=O)Nc2ccccc2F)CC(C)O1 (stereo not given)
i	-0.56	COc1cccc(C=Nc2ccc3c(c2)CCC3)c1O
i	1.2	O=C1C2C3C=CC(CC3)C2C(=O)N1c1cccc(C(F)(F)F)c1 (stereo not given)
i	0.91	NC(=O)CSc1nc2c(sc3ccccc32)c(=O)n1CCCC(=O)NCC1CCCO1 (stereo not given)
i	1.1	Cn1cc(C2CC(c3ccccc3)=NN2C(=O)c2ccccc2)c2ccccc21 (stereo not given)
i	0.44	Cn1c(CNC(=O)Nc2ccccc2Cl)nnc1SCc1ccccc1
i	2.2	COc1cc(O)c(C(CCN2CCOCC2)c2ccc3c(c2)OCO3)c(OC)c1 (stereo not given)
i	-0.34	CCN(CC(=O)Nc1cc(Cl)ccc1C)c1ncnc2sc(C)c(C)c12
i	2	Cc1noc(NS(=O)(=O)c2ccc(N3CC(O)=C(c4ccccc4)C3=N)cc2)c1C
i	-0.8	Cc1ccc(C(c2c(C)n(C)n(-c3ccccc3)c2=O)c2c(C)n(C)n(-c3ccccc3)c2=O)s1
i	-3	CCC(C(=O)NC1CCCC1)N(Cc1ccccc1Cl)C(=O)c1snc(C(N)=O)c1N (stereo not given)
i	-0.9	CCCCN(CCCC)S(=O)(=O)c1ccc(SCC(=O)OCC)c([N+](=O)[O-])c1
i	-0.3	COc1ccc(N(CC(=O)N2CCN(c3ccc(F)cc3)CC2)S(=O)(=O)c2c(C)n[nH]c2C)cc1
i	1.1	CCC(=O)N1N=C(c2ccc(C)o2)CC1c1ccc(Br)cc1 (stereo not given)
i	1.9	COc1ccc(NC(C)=[N+](C)CCNS(=O)(=O)c2ccc(Cl)cc2)cc1Cl
i	0.99	Cc1ccccc1S(=O)(=O)c1c(C)cc(C)n(C(C)C)c1=O
i	0.02	CC1(C)[C@H](C(=O)O)N2C(=O)C[C@H]2S1(=O)=O
i	2.9	O=C(CN1CCc2ccccc21)NC(=O)NC1CCCCC1
i	-0.01	COc1ccc(NS(=O)(=O)c2ccc(N3CCOCC3)c(NC(=O)c3cccc(F)c3)c2)cc1
i	-0.01	C=CCN1c2ccccc2[C@]23C[C@@H](C(=O)OC)N(C(=O)NC4CCCC4)C2=NC(C(=O)OC)=C(C(=O)OC)[C@H]13
i	0.77	Cn1c(OCc2cccnc2)nc2c1c(=O)n(Cc1ccccc1)c(=O)n2C
i	-0.15	CC(C)(C)OC(=O)N[C@@H](Cc1ccccc1)C(=O)N1CCC(C(=O)N[C@@H](Cc2c[nH]c3ccccc23)C(=O)O)CC1
-7*	-2.2*	CSc1cccc(CN2CCCC(CO)(Cc3cccc(Cl)c3)C2)c1 (stereo not given)
i	-0.48	COc1cccc(OCCCCN2CC(C)OC(C)C2)c1 (stereo not given)
i	2.4	CCN(CC(=O)Nc1c(F)cccc1F)C(=O)CCN1C(=O)C2CCCCC2C1=O (stereo not given)

Single records, as listed above:
Cc1noc(NS(=O)(=O)c2ccc(N3CC(O)=C(c4ccccc4)C3=N)cc2)c1C is entered as KCNQ2 block = i; KCNQ2 block baseline = 2
CCN(CC(=O)Nc1c(F)cccc1F)C(=O)CCN1C(=O)C2CCCCC2C1=O (stereo not given) is entered as KCNQ2 block = i; KCNQ2 block baseline = 2.4
CC(C)(C)OC(=O)N[C@@H](Cc1ccccc1)C(=O)N1CCC(C(=O)N[C@@H](Cc2c[nH]c3ccccc23)C(=O)O)CC1 is entered as KCNQ2 block = i; KCNQ2 block baseline = -0.15

Going on with the list.
KCNQ2 block	KCNQ2 block baseline	structure
i	-2.6	O=C(NCCCN1CCOCC1)c1ccc2c(c1)N(Cc1ccccc1)C(=O)c1ccccc1S2
i	-0.37	O=S(=O)(c1ccccc1)c1ncc(C(F)(F)F)cc1Cl
i	-1.1	C=CCNC(=O)/C(=C\C=C\c1ccccc1)NC(=O)c1ccccc1Cl
i	0.13	CC(=O)c1ccc(N(C)C)c2c(N(C)C)cccc12
i	-0.45	COc1ccc(CCNC(=O)CCCN2C(=O)C(c3ccccc3)Oc3cccnc32)cc1OC (stereo not given)
i	-0.83	Cc1nc(SC(C(=O)c2ccccc2)c2ccccc2)n[nH]1 (stereo not given)
i	1.8	CCOc1ccc(NC(=O)CN2C(=O)NC(C)(c3ccc(OC(F)F)cc3)C2=O)cc1 (stereo not given)
i	-0.83	NS(=O)(=O)c1ccc2nc(-c3ccccc3)c(-c3ccccc3)nc2c1
i	0.38	CC1Cc2ccccc2N1C(=O)CSc1nnc(CSc2ncccn2)n1C (stereo not given)
i	0.66	Clc1ccc(-c2cc(CSc3ccccc3)on2)cc1
i	0.08	CCOC(=O)c1cccc(NC(=O)Cn2c(CC(=O)NC)nc3ccccc32)c1

Screening results: PubChem, Johns Hopkins Ion Channel Center
